Source: PubChem
D2 agonist: activates the human D2 dopamine receptor; DiscoveRx PathHunter D2 beta-arrestin, luminescence, 90 min; 100% = 57 uM dopamine signal; activation, % (test concentration not listed); actives 0.084% (n = 360,000); AID 624465; in the data active = activation above about 40%; inconclusive = about 15% to 40%; inactive = below about 15%; further: compound concentration not given in the record; the text of the record calls up to 30% inactive
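Agonist mode: compounds alone added to overnight-plated D2 PathHunter cells for 90 min at 37 C, with 57 uM final dopamine (EC100) defining full response. Beta-arrestin recruitment detected by chemiluminescent reagent, read after 1 h at ambient temperature.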
D2 PAM: human D2 receptor positive allosteric modulation. DiscoveRx D2 beta-arrestin cells, luminescence, 90 min; 100% = 57 uM dopamine signal. P14416. AID 624464. potentiation, % (test concentration not listed). actives 0.23% (n = 360,000); active = potentiation of 50% or more; inconclusive = 30% to 50%; inactive = 30% or less;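 further: compound concentration not given in the record; tested on top of an EC20 dose of dopamine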
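D2 cells co-treated with compound plus 50 nM dopamine (EC20) for 90 min at 37 deg C to detect potentiation. Beta-arrestin recruitment was read as enzyme-fragment luminescence after 1 h at ambient temperature. Full response was set by 57 uM dopamine.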
gsp ag: gsp mutant agonism. actives 0.13% (n = 340,000). gsp mutant cells, cAMP HTRF, 30 min; control for the full effect not named in the record. Potency, µM (series often up to 76.9 µM), for inactives: top-dose activation (cAMP increase), usual class: activators; active = well fitted activation curve with a large enough effect; inconclusive = small, poorly fitted or top-dose-only effect, or another doubt; inactive = no such curve, though single readings can be large or run the other way; cell line not stated here;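 further: phosphodiesterase inhibitor Ro 20-1724 added with compounds to block cAMP breakdown; potency means the concentration at half of the fitted maximal effect; nearly all actives have a fitted effect of over 60% in size; about a fifth of the inactives were tested at one dose only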
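Cells stably selected in G418 were plated at 2000/well, grown 16-24 hr, then given compounds in DMSO with the PDE inhibitor […] (300 uM solution added) for 30 min at 37C; cAMP was read by HTRF.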
CtBP-E1A inh: CtBP/E1A binding inhibition. AlphaScreen GST-E1A/His-CtBP binding, 1536-well; active compounds read low; control for the full effect not named in the record. activity change, % (no concentration beside the values). actives 0.49% (n = 340,000); in the data active means activity change below about -65%; inconclusive means about -30% to -65%; inactive means above about -30%; further: on the % scale 0 is the no-effect control and ±100 the full control effect
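In 5 uL wells, 23 nL compound meets equimolar GST-E1A and His-CtBP (5X stock 125 nM each) for 2 h, 37 °C. Beads (5X, 50 ug/mL) then 1 h, 37 °C, dark.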
gsp antag: antagonists of gsp mutant (McCune-Albright syndrome) | gsp-mutant cells, cAMP HTRF, 30 min; control for the full effect not named in the record | actives 0.4% (n = 340,000) | Potency, µM (titrated, usually from 76.9 µM), for inactives: at the highest dose activity change, negative = inhibition, usual class: inhibitors | AID 624288; active = falling curve of any shape with a large fitted effect; inconclusive = falling curve, mostly with a smaller effect; inactive = flat or rising curve; cell line not stated here;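 further: intracellular cAMP measured with PDE inhibitor Ro 20-1724 present during compound exposure; potency means the concentration at half of the fitted maximal effect; on the % scale 0 is the no-effect control and ±100 the full control effect; nearly all actives have a fitted effect of over 65% in size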
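HTRF cAMP read-out (cAMP-d2 plus anti-cAMP antibody-K in lysis buffer, 30 min RT). Before lysis, cells are exposed to compounds with […] for 30 min at 37C in DPBS containing Ca/Mg, BSA and Tween 20.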
Six1-Eya2 blk: blocks human Six1 binding to Eya2. Q15475+O00167. AlphaScreen GST-Six1/His-Eya2 binding, biochemical; active compounds read low; control for the full effect not named in the record. activity change, % (test concentration not listed). actives 0.56% (n = 360,000). AID 651725; in the data active = activity change below about -65%; inconclusive = about -30% to -65%; inactive = above about -30%; further: on the % scale 0 is the no-effect control and ±100 the full control effect
Target sequence (O00167 whole entry, looked up): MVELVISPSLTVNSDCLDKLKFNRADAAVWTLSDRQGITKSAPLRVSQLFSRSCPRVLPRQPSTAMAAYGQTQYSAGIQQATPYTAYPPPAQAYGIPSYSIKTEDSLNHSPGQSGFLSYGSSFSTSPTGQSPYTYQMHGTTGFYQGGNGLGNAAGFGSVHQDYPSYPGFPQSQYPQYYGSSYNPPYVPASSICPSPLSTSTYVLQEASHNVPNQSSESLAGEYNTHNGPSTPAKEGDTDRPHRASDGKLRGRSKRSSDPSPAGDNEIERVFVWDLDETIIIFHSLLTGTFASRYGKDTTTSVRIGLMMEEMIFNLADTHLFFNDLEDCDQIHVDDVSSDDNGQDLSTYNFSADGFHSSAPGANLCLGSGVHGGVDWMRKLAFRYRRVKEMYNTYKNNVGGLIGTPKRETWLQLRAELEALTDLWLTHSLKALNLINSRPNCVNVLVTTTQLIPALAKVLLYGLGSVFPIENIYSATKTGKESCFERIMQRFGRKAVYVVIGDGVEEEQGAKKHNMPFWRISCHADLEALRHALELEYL
Target sequence (Q15475 whole entry, looked up): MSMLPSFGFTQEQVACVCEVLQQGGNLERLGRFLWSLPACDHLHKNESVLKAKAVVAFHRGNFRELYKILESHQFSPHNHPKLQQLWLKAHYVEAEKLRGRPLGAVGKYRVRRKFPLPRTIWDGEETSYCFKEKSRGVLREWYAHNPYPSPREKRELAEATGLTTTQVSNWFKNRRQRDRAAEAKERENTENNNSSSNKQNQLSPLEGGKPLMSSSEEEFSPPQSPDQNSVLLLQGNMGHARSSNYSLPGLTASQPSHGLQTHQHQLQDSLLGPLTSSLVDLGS
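AlphaScreen with GST-Six1 and His-Eya2 (5X mix: 250 nM and 500 nM), glutathione donor and nickel acceptor beads; buffer 50 mM Tris pH 8.0, 300 mM NaCl, 1 mM TCEP; 1 h at 37 C in the dark.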
Numbers without * were called inactive; ? = inconclusive; . = no result given; & = joins results of further samples; [ ] = dose if it differs, or a comment.

SMILES	D2 agonist	D2 PAM	gsp ag	CtBP-E1A inh	gsp antag	Six1-Eya2 blk
CCOC(=O)N1CCN(CCC(=O)Nc2cccc(Br)c2)CC1	0.0&-0.8	-21&2	-23%&-25%	-1&9	-10%&4%	3&6
O=C(N/N=C/c1cc(O)ccc1Br)c1cccnc1	0.1	-7	-2%	-93*	3%	-91*
O=C(NCc1nc2ccccc2[nH]1)C1=C[C@@H](C2CCCCC2)C[C@@H](OCc2ccc(CO)cc2)O1	0.0	-21	.	-14	-23%	-6
O=C1NC(=S)NC1=Cc1ccco1	0.7	-10	22%	-16	5%	-24
O=C(NCCCN1CCOCC1)c1ccc(CS(=O)(=O)Cc2ccc(Cl)cc2)o1	-0.3	-7	0%	-2	6%	1
CC(CNC(=O)Cn1cnc2c(OCc3ccccc3)ncnc21)c1ccccc1 (stereo not drawn)	-4.8	-8	.	0	0%	-23
CCOC(=O)N1CCN(CCC(=O)Nc2ccccc2OC)CC1	-1.0	-12	0%	5	11%	6
CN(C)C=NC(=O)c1cc(C(=O)c2ccc(F)cc2)c[nH]1	-0.9	-5	-9%[15.4 µM]	0	-16%	1
N#C/C(=C(/O)COC(=O)c1ccc(C#N)cc1)c1nc2ccccc2s1	-4.3	-4	?	1	-26%	3
Cc1ccc(N2CC(C(=O)Nc3c4c(nn3C(C)(C)C)CS(=O)(=O)C4)CC2=O)cc1C (stereo not drawn)	-0.1	-8	?	1	6%	2
CC(=O)c1cccc(OCC(=O)c2cc(C)n(-c3cc(C)on3)c2C)c1	4.8	-2	6%	-7	?	-8
COC(=O)c1cc2ccc(OC)c(OC)c2c(=O)s1	-1.1	-16	6%	-2	-3%	3
Cc1ccc(C2CC(=O)NC(SCc3ccccc3)=C2C#N)cc1 (stereo not drawn)	-2.5	-3	-34%[inhibitor]	0	18%	14
CN(C(=O)c1cc(COc2c(F)cccc2F)on1)C1CCOC1 (stereo not drawn)	2.6	-3	7%[15.4 µM]	5	9%	4
O=C1CC(c2ccc3c(c2)OCCO3)Oc2ccc([N+](=O)[O-])cc21 (stereo not drawn)	-7.3	-9	-23%	.	?	1
COc1cc(C(=O)N2CCN(c3ccccc3O)CC2)ccc1OCC(=O)N1CCOCC1	2.0	4	34%	4	3%	3
CCOC(=O)CSc1nc2ccccc2c(=O)n1CCCCCC(=O)NCc1ccco1	0.6	-1	-1%	-2	-23%	-7
CCN(CC)c1ccc(/C=N/Nc2nc(C)cc(C)n2)cc1	3.5	3	-7%	-7	-26%	-18
CCCNC(=O)C1(C)CCN(C(=O)c2ccc(C)c(F)c2)C1 (stereo not drawn)	-1.7	-6	.	6	.	3
Cc1ccc(S(=O)(=O)N2CCC[C@H]2C(=O)OCC(=O)N2CCc3ccccc32)cc1	-5.8	-2	8%	12	-13%	1
COc1ccc(OC)c(NC(=O)/C=C/c2ccc(S(=O)(=O)N3CCOCC3)cc2)c1	-8.5	-30	0%[15.4 µM]	1	?	-12
Cc1ccc(NC2CC(=O)N(c3ccc(N4CCCCC4)cc3)C2=O)cc1 (stereo not drawn)	-0.6	-1	-7%	-1	?	0
Cc1cccc(C)c1NC(=O)CNC(=O)c1ccc(N2CCCC2=O)cc1	8.1	-1	1%	-4	6%	-2
O=C(Nc1ccc2c(c1)OCO2)c1ccc2nc[nH]c2c1	-3.0	-6	-65%[inhibitor]	-18	-13%	-24
O=C(CCc1c[nH]c2ccccc12)Nc1ccc(S(=O)(=O)Nc2ncccn2)cc1	-2.1	3	0%[15.4 µM]	8	10%	-17
O=C(Nc1ccccc1C(=O)N1CCOCC1)c1cc2ccccc2o1	-4.1	-2	-47%[inhibitor]	5	6%	2
NC1=NC(c2ccc(Cl)cc2)C(C(=O)c2ccccc2)N1 (stereo not drawn)	-4.6	-21	15%	.	-2%	-2
C/C(=N\N=C(/N)SC1CC(=O)N(c2ccc(Cl)c(Cl)c2)C1=O)c1cccs1 (stereo not drawn)	2.2	-1	-1%	3	-8%	-7
Cn1ccc(NC(=O)c2ccc(Cl)cc2Cl)n1	2.6	-2	?	-2	7%	6
Cc1c(C(=O)NC(C)C)sc2ncn(CC(=O)N3CCC(C)CC3)c(=O)c12	-2.2	-7	-51%[inhibitor]	1	-2%	0
O[C@@H]1CN(CC2CCCCC2)[C@@H](c2ccccc2)C[C@H]1n1cc(-c2ccc(F)cc2)nn1	-8.2	2	?	-4	.	-5
Cc1ccnc(NC(=O)CCNS(=O)(=O)c2ccc(C)c(C)c2)c1	-1.8	5	20%	-21	15%	0
CS(=O)(=O)c1ccc(Nc2nc(C(N)CCc3ccccc3)cs2)cc1 (stereo not drawn)	2.9	-5	.	-5	.	-9
O=C(N/N=C/c1ccccc1OCc1ccccc1Cl)c1cccnc1	7.5	-5	31%	-25	-7%	-18
Cc1cc(C)n(/N=C/c2ccccc2O)c(=O)c1	1.1	-6	20%	6	5%	0
CCCCC(=O)Nc1c2c(nn1-c1cccc(C)c1C)CS(=O)(=O)C2	-4.9	-7	-37%	-1	-4%	-11
O=C(Nc1ccc(NC(=O)c2ccc3c(c2)OCCO3)cc1)c1ccccc1	-2.6	-1	-3%	0	-1%	3
Cc1nn(Cc2cccc(C(N)=O)c2)c(C)c1Br	-1.9	-5	12%[15.4 µM]	-29	1%	4
CC(C(=O)Nc1nccs1)N1C(=O)C2CC=CCC2C1=O (stereo not drawn)	-2.4	-5	15%	0	7%	2
CC(C)OC(=O)CSc1nnc2c3ccccc3n(C)c2n1	-2.9	-1	?	2	-6%	5
S=C(NCc1ccccn1)NN=Cc1ccccn1	?	?	-25%	-4	5%	-91*
Cc1ccc(NC(=O)CCCCCC2NC(=O)NC2C)cc1 (stereo not drawn)	-1.7	-2	-22%	7	-10%	2
CC(C)CN1CCN(Cc2ccc(C#CC(C)(C)O)cc2)CC1CCO (stereo not drawn)	-2.7	-9	-2%[15.4 µM]	14	12%	-8
O=C(NC1CCCCCC1)C1CCCN1S(=O)(=O)c1cccc2cccnc12 (stereo not drawn)	-6.9	0	-35%[inhibitor]	-10	-4%	-7
CC(=O)Nc1ccc(S(=O)(=O)Nc2cc(C)cn(Cc3ccccc3)c2=O)cc1	-1.3	-5	-6%[15.4 µM]	0	-2%	2
Cc1ccc(C(=O)NCC(=O)Nc2ccccc2C(F)(F)F)cc1	1.8	-9	?	-1	12%	-2
COc1ccc(-c2nc3ccc(C)cc3c(=O)o2)cc1OC	1.3	2	19%[15.4 µM]	3	-2%	-5
CC1(C)C2CCC1(C)C(OC(=O)C[n+]1ccccc1)C2 (stereo not drawn)	-1.1	-3	?	15	10%	4
Cc1sc2ncnc(NCCN3CCOCC3)c2c1C	-0.9	-12	45%	3	-18%	-1
O=C1Nc2ccccc2C1=Nc1cccc(Cl)c1	-15	-37	-10%[15.4 µM]	3	5%	-9
COc1ccc(N2CCN(C(=O)COC(=O)CCc3ccccc3)CC2)cc1	-2.4	-4	19%	11	6%	-4
CCC(=O)N1N=C(c2cccs2)CC1c1ccco1 (stereo not drawn)	-0.7	-6	?	-1	-2%	-8
O=C(CCNC(=O)c1ccc(Br)cc1)NNC(=O)C1COc2ccccc2O1 (stereo not drawn)	1.2	-2	-33%	-18	1%	0
CC(=O)Nc1cc(-c2ccc(N3CCN(C)CC3)cc2)cn2c(-c3cccc(C(C)=O)c3)cnc12	-4.8	-19	.	-29	.	-25
N#Cc1cc2nc(O)c(O)nc2cc1[N+](=O)[O-]	-4.3	-4	.	?	4%	?
Cc1cc(C)cc(C(=O)Oc2cc(C)[nH]c(=O)c2[N+](=O)[O-])c1	4.0	-6	-1%	.	2%	3
CCOc1nc(CC)nc(NC(=O)NS(=O)(=O)c2ccccc2Cl)n1	-2.3	-29	1%	-2	7%	-6
O=S(=O)(c1ccc(F)cc1)n1ccc(-c2cccc(OCc3c(F)cccc3Cl)c2)n1	-2.6	-6	2%	6	-8%	4
O=C(c1ccc([N+](=O)[O-])s1)N1CCCc2ccccc21	6.9	10	-5%	-17	-6%	-13
O=C(/C=C/c1cccc(Cl)c1)Nn1c(-c2cccs2)nc2ccccc2c1=O	0.0	-3	-10%[15.4 µM]	2	-22%	-3

An excerpt from above in order of molecular weight, descending:
SMILES	D2 agonist	D2 PAM	gsp ag	CtBP-E1A inh	gsp antag	Six1-Eya2 blk
O=C(NC1CCCCCC1)C1CCCN1S(=O)(=O)c1cccc2cccnc12 (stereo not drawn)	-6.9	0	-35%[inhibitor]	-10	-4%	-7
CC(C)CN1CCN(Cc2ccc(C#CC(C)(C)O)cc2)CC1CCO (stereo not drawn)	-2.7	-9	-2%[15.4 µM]	14	12%	-8
Cc1ccc(NC(=O)CCCCCC2NC(=O)NC2C)cc1 (stereo not drawn)	-1.7	-2	-22%	7	-10%	2

Gathered by group: the compounds so far containing a nitro group on carbon.
SMILES	D2 agonist	D2 PAM	gsp ag	CtBP-E1A inh	gsp antag	Six1-Eya2 blk
O=C1CC(c2ccc3c(c2)OCCO3)Oc2ccc([N+](=O)[O-])cc21 (stereo not drawn)	-7.3	-9	-23%	.	?	1
N#Cc1cc2nc(O)c(O)nc2cc1[N+](=O)[O-]	-4.3	-4	.	?	4%	?
Cc1cc(C)cc(C(=O)Oc2cc(C)[nH]c(=O)c2[N+](=O)[O-])c1	4.0	-6	-1%	.	2%	3
O=C(c1ccc([N+](=O)[O-])s1)N1CCCc2ccccc21	6.9	10	-5%	-17	-6%	-13

(continued)
SMILES	D2 agonist	D2 PAM	gsp ag	CtBP-E1A inh	gsp antag	Six1-Eya2 blk
N#Cc1ccc(NC(=S)NCCN2CCOCC2)cc1	-1.0	-7	?	4	11%	1
CC(C)(C)N(Cc1ccccc1)C(=O)COc1cccnc1[N+](=O)[O-]	-2.6	-10	?	-2	-20%	-1
COC(=O)C1CCN(S(=O)(=O)c2c(C)n(C)c(=O)n(C)c2=O)CC1	4.5	-3	?	2	14%	-2
CCOC(=O)c1ccc(NC(=O)N2CCN(C(=O)c3ccco3)CC2)cc1	-5.2	0	?	1	-7%	-6
COc1ccc(C(=O)O)cc1S(=O)(=O)Nc1cc(C(F)(F)F)ccc1N1CCCCC1	0.9	3	4%	4	.	11
